Assay outcomes: PubChem BioAssay, National Center for Advancing Translational Sciences (NCATS)
LT uptake inh = qHTS Assay for Anthrax Lethal Toxin Internalization; Cells, anthrax lethal toxin internalization, FRET ratio (460/530); Potency, µM (highest dose often 40 µM), for the others: top-dose activity change, negative = inhibition, usual class: inhibitors; 70,000 tested, 0.67% active; AID 912, 2007; active = well fitted falling ratio curve with the 530 nm signal flat; inconclusive = other ratio curves, or a change in one channel alone; inactive = flat curves in the ratio and both channels; the % refers to the ratio; also: % is scaled to controls: 0 for no effect and ±100 for the full control effect; nearly all actives have a fitted effect of over 50% in size; tested in ME-180 cells; beta-lactamase reporter
SmPrx2 inh = Schistosoma Mansoni Peroxiredoxins (Prx2). Potency, µM. 65,000 tested, 0.07% active. S. mansoni Prx2 activity coupled to TGR/GSH (TGR is thioredoxin glutathione reductase), NADPH fluorescence loss, qHTS; some inactives read as strong as hits. AID 448, 2006; active means full or partial inhibition curve with a strong effect at the top dose; inconclusive means weaker partial or single-point curve; inactive means no accepted curve; also: series up to 57 µM; many of its hits are not listed in these tables
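qHTS, coupled TGR/Prx2 format; 15 min compound preincubation at RT; reaction started with H2O2 (2.5 mM aliquot); kinetic NADPH fluorescence decrease, ex 365/em 450 nm.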
Starred values were filed as active, the others as inactive; ? = inconclusive; nt = not tested or not shown; & = joins results of further samples; [ ] = dose if it differs, or a comment. Potency is read from the fitted curve at half-maximal effect. Some of the compounds tested (hit frequency here may not be typical).

SMILES	LT uptake inh	SmPrx2 inh
Cc1ccc(N2C(=O)C(Cl)=C(NCCO)C2=O)c(C)c1	-20%	>57
CCOC(=O)N/N=C1/C[C@@H](O)[C@@H](O)[C@@H]2[C@@H]3C(=O)N(Cc4ccccc4)C(=O)[C@H]3CC[C@@H]12	-2%[8 µM]	nt
COc1ccc(N2CCN(C(CNS(=O)(=O)c3cc(F)ccc3F)c3cccnc3)CC2)cc1 (centres undefined)	14%	>57
Cc1cc(C)n2cc(CSc3nnnn3-c3ccccc3C)nc2n1	11%	>57
O=C(c1cc(C(F)(F)F)cc(C(F)(F)F)c1)N1CCC2(CCCN(c3ccncc3)C2)CC1	?	>57
CCn1c(=O)c2c(nc(SCc3ccccn3)n2C)n(C)c1=O	-2%	>57
O=C(Cc1cn2ccsc2n1)Nc1nc2c(s1)CCCC2	14%	>57
c1ccc(Nc2cccc3ccccc23)cc1	?	nt
CCc1c(C)sc(NC(=O)c2cc(-c3cc(OC)ccc3OC)on2)c1C#N	-3%	>57
Cc1ccc(C)c(N2CCN(CCCNC(=O)Cn3cc4c(n3)CCCCC4)CC2)c1	1%	>57
CC1(C)Cc2c(sc3c2c(=O)n(Cc2ccccc2)c2nncn32)CO1	-12%	>57
O=C1CN2C(=Nc3ccc(Cl)cc3C2c2ccccc2)CN1 (centres undefined)	-1%	>57
Cc1cc2c(c(=O)n1CCN(C)C)C(c1ccncc1)C(C#N)=C(N)O2 (centres undefined)	-18%	>57
Cc1cccc([N+](=O)[O-])c1	-3%	nt
O=C(CCS(=O)(=O)Cc1ccccc1)NC1CCCCC1	-17%	>57
O=C(C(c1ccccc1)c1ccccc1)N1CCN(CC(O)COc2ccccc2)CC1 (centres undefined)	-17%	>57
COc1ccc(C(OC(=O)c2ccco2)C(=O)NCC2CCCO2)cc1 (centres undefined)	11%	>57
COc1ccc(C2c3sc(=O)[nH]c3SC3C4CCC(C4)C23)cc1 (centres undefined)	-28%	>57
CCOC(=O)N1CCN(C(=O)CS(=O)(=O)c2cn(Cc3cccc(F)c3)c3ccccc23)CC1	1%	>57
Cn1ncc2c1ncn1nc(CCc3ccccc3)nc21	3%	>57
O=C1CC(Nc2ccc(N3CCOCC3)cc2)C(=O)N1c1cccc(C(F)(F)F)c1 (centres undefined)	3%	>57
CCN1CCN(CCCNc2ncnc3nc[nH]c23)CC1	14%	>57
Cc1noc(C)c1C(=O)N1CCC[C@@]2(CCN(Cc3ccccc3)C2)C1	-6%	>57
Cc1noc(NS(=O)(=O)c2ccc(NC(=O)CCC3CCCCC3)cc2)c1C	nt	>57
CC1CC(C)CN(S(=O)(=O)c2ccc3c(c2)oc(=O)n3CC(=O)N2CCOCC2)C1 (centres undefined)	2%	>57
The listing continues:
SMILES	LT uptake inh	SmPrx2 inh
CCCn1c2ccccc2c2cc(C(=O)O)ccc21	-2%	>57
Cc1cc(NCCCN2CCOCC2)n2nc(C)c(-c3ccc(F)cc3)c2n1	?	>57
CC[C@](N)(C(=O)O)C(C)C	?	>57
COc1cccc(-c2cc(C(=O)Nc3cnn(Cc4ccccc4C)c3)no2)c1	-13%	nt
O=C(c1cccc(F)c1)N1CCc2ccccc21	3%	nt
COc1ccc(NC(=O)CSc2nccn2-c2ccccc2)c(OC)c1	3%	>57
c1cncc(-c2cc(NCc3cccs3)ncn2)c1	15%	>57
CCN1C(=O)c2ccccc2S(=O)c2ccc(C(=O)N3CCCCCC3)cc21 (centres undefined)	13%	>57
O=C(O)C1(c2cccc(Cl)c2)CCC1	2%	>57
COc1ccc2[nH]cc(CCNc3ccnc(-c4cccnc4)n3)c2c1	-21%	>57
Nc1nc(SCc2ccc(Cl)cc2Cl)n[nH]1	-20%	>57
CC(C)C[C@@H](CC(=O)N[C@H](CC(=O)N[C@@H]1CCCC[C@H]1C(=O)N[C@H](CC(=O)N[C@@H](CCC(=O)O)CC(=O)O)Cc1ccccc1)C(C)C)NC(=O)[C@@H]1CCCC[C@H]1N	-9%	>57
O=C(Oc1cccc(C(=O)N2CCOCC2)c1)c1ccc(Br)cc1	-10%	>57
CC(=O)c1c(C)[nH]c(C(=O)N2CCN(c3ncccn3)CC2)c1C	-1%	>57
O=C1NO[C@H]2[C@@H]1CN[C@@H]2C(=O)O	8%	nt
CCCN(CCC)c1nc2ccccc2n2c(C)nnc12	0%	>57
O=C(NCCNC[C@@H](O)COc1ccc(O)cc1)N1CCOCC1	-14%	>57&>57&>57
COc1ccc(OC)c(NC(=O)CCCN2C(=O)C3C4C=CC(C4)C3C2=O)c1 (centres undefined)	4%	>57
CC(C)[C@H](NC(=O)Nc1ccc(Oc2ccccc2)cc1)C(=O)O	9%	>57
COCCCN1C(=O)C(=O)/C(=C(/O)c2ccc3c(c2)CC(C)O3)C1c1cccnc1 (centres undefined)	-20%	nt
COc1ccccc1OCCNC(=O)c1ccccc1C	12%	>57
COCCNCC#CCOc1ccc(OC)cc1	0%	>57
CCCCCC[C@H]1C(=O)O[C@H](C)[C@H](NC(=O)c2cccc(NC=O)c2O)C(=O)O[C@@H](C)[C@H]1OC(=O)CC(C)C	8%[3.58 µM]	>57
O=C(O)CSc1ccc(N=C=S)cc1	-4%[8 µM]	>57
COc1ccc(CC(=O)Nc2ccc(-c3noc(COc4ccccc4C)n3)cc2)cc1	6%	>57
The listing continues:
SMILES	LT uptake inh	SmPrx2 inh
CC(C)C(C)(C#N)NC(=O)CSc1nnc(-c2ccncc2)n1Cc1ccccc1 (centres undefined)	9%	>57
CCc1cccc(NC(=O)c2ccc(Br)o2)c1	?	>57
CCOc1ccc(C2C=C(c3ccc(C)cc3)Nc3ncnn32)cc1 (centres undefined)	?	>57
O=C(CN1C(=O)c2cccc3cccc1c23)NCc1cccnc1	5%	>57
O=C(Nc1ccc(Br)cc1F)c1ccc2c(c1)N(Cc1ccccc1)C(=O)CS2=O (centres undefined)	?	>57
O=C(CNS(=O)(=O)c1cccc(C(F)(F)F)c1)Nc1ccccc1F	-2%	>57
O=C(c1ccc(-c2ccccc2)cc1)N1CCCC1	-1%	nt
CC1(C)CC(=O)C(C=Nc2ccncc2)=C(O)C1	-4%	>57
COc1ccccc1C(=O)N1CCN(C(=O)c2ccncc2)CC1	2%	>57
COc1cccc(NS(=O)(=O)c2ccc(Br)s2)c1	11%	>57
COc1ccccc1-c1nnc(SCC(=O)Nc2nc(-c3ccccc3)cs2)n1C	?	>57
CC(C)Cn1c(=O)c(C(=O)NCc2ccccn2)c(O)c2ccccc21	-8%	>57
CC(C)(C)NC(=O)[C@@H]1C[C@H]2CCCC[C@@H]2CN1C[C@H](O)[C@H](Cc1ccccc1)NC(=O)[C@@H](CC(N)=O)NC(=O)c1ccc2ccccc2n1	2%[3.58 µM]	>57
COC(=O)c1ccc2c(c1)N(Cc1nc(-c3cccc(C)c3)oc1C)C(=O)C1CCCN21 (centres undefined)	-6%	>57
Cc1ccc(C(=O)c2nocc2C(=O)c2cccs2)cc1	13%	>57
CCCC(=O)NCCc1cc2ccc(OC)cc2[nH]c1=O	-9%	>57
N#Cc1ccccc1Sc1ccccc1C(=O)OCc1nnc(-c2ccccc2)o1	-6%	>57
CCNc1ncc2nc(-c3ccc(F)cc3)c(=O)n(C[C@H]3CCCO3)c2n1	?	>57
CCOC(=O)c1cnc(-n2nc(C)cc2C)nc1N1CCOCC1	-10%	>57
CC1(C)NC(=O)N(CC(O)COc2ccc(-c3ccccc3)cc2)C1=O (centres undefined)	-6%	>57
COc1ccc2occ(C(=O)c3coc4ccc(O)c(CN(C)C)c34)c2c1	-15%	>57
CCCc1cc(=O)oc2cc(Oc3ncccn3)ccc12	-2%	>57
COc1ccc(CCNC(=O)COc2ccc(S(=O)(=O)N3CCOCC3)cc2)cc1	8%	>57
Nc1nc(Cl)cc(NCCO)n1	0%[8 µM]	>57
CCOC(=O)c1ccccc1NC(=O)c1cccs1	-8%	>57
(list continues)
SMILES	LT uptake inh	SmPrx2 inh
NC(=O)c1ccccc1N/C=C/C(=O)c1ccccc1	1%	>57
COc1ccc(-c2noc(-c3ccco3)n2)cc1OC	-7%	>57
Cc1ccc(C(=O)COC(=O)c2ccc(Br)o2)cc1C	-17%	nt
ON1C2CCCCC2N(O)C1c1c(F)c(F)c(F)c(F)c1F (centres undefined)	1%	>57
CC(C)c1ccc(S(=O)(=O)N2CCN(C(=O)c3cccc(F)c3)CC2)cc1	?	>57
Cc1csc(NC(=O)CSc2nnc(-c3ccccn3)n2-c2ccc(C)c(C)c2)n1	-5%	>57
Cc1ccc2c(c1)c1c3n2CCN(C(=O)Cn2c(-c4ccccc4)noc2=O)C3CCC1 (centres undefined)	?	>57
O=C(N=C1SCC(=O)N1c1ccccc1Cl)c1ccco1	6%	nt
COc1ccc(CCn2c(=O)[nH]c3cc(C(=O)NCCCN4CCOCC4)ccc3c2=O)cc1OC	11%	>57
CN(C(=O)CSc1nc2c(c(=O)[nH]1)CCCC2)C1CCCCC1	12%	>57
O=P1(O)C=C(c2ccccc2)OC(c2ccccc2)=C1	6%	>57
CC(=O)N(c1cccc(Br)c1)C1C=CS(=O)(=O)C1 (centres undefined)	6%	>57
C=CCn1c(C)cc(C(=O)COc2nncc3ccccc23)c1C	22%	>57
OCC#Cc1cnc2ccccc2c1	12%	>57
Fc1ccccc1COc1cccc(/C=N/n2cnnc2)c1	-9%	nt
O=C(CN1CCCCC1)Nc1cccc(-n2cnnn2)c1	1%	>57
COc1cccc(-c2cc3nc(-c4ccccc4)cc(N4CCC5(CC4)OCCO5)n3n2)c1	-2%	>57
COCCOC(=O)C1=C(C)NC2=C(C(=O)CCC2)C1c1ccc(N(C)C)cc1 (centres undefined)	14%	nt
CCOc1ccccc1-n1c(SCC(N)=O)nnc1-c1ccc(O)cc1	23%	>57
CCCCOc1ccc(C(=O)Nc2ccc(N3CCN(C)CC3)cc2)cc1	-7%	>57
Cc1ccc(N(CC(=O)NC2CC3CCC2C3)S(C)(=O)=O)cc1C (centres undefined)	-25%	nt
CN(C(=O)COc1ccccc1)c1nnc(-c2cccnc2)s1	-20%	>57
CCOC(=O)c1cc(NC(=O)SCC(=O)O)c(C)nc1C	-17%	>57
Cc1ccc(-c2nn3c(C)nnc3s2)cc1NC(=O)c1ccc(-c2cccc(Cl)c2)o1	7%	>57
Cc1cc(C(=O)N2CCN(C/C=C/c3ccccc3)CC2)cs1	-2%	>57
Following part:
SMILES	LT uptake inh	SmPrx2 inh
CCCc1ccc(C(=O)N2CCN(c3ccccc3OCC)CC2)cc1	-12%	>57
CCCCOc1ccc(-c2ncc(C(=O)OCC)c(N)n2)cc1	0%	>57
NS(=O)(=O)c1ccc(CCNC(=O)C2CCCCN2S(=O)(=O)c2ccccc2)cc1 (centres undefined)	2%	>57
COc1ccccc1N1CC(C(=O)Nc2cccc(C(=O)O)c2)CC1=O (centres undefined)	?	>57
O=C(O)C1C2C=CC(C2)C1C(=O)NCCC1=CCCCC1 (centres undefined)	1%	nt
COc1ccn(C)c(=O)c1C#N	?	>57&>57
O=C(CCSc1nc(-c2ccco2)cc(C(F)(F)F)n1)N1CCN(c2ccccc2)CC1	?	>57
Cc1csc(Sc2nc3c(c(=O)[nH]c(=O)n3C)n2Cc2ccccc2Cl)n1	?	>57
CN(C)S(=O)(=O)N(CC(=O)Nc1ccccc1F)c1ccccc1	-6%	>57
CCc1c(C)[nH]c(=S)c(C#N)c1C	?	>57
COc1ccccc1-c1nnc2sc(COc3ccc(Cl)cc3)nn12	nt	>57
O=C(NCCCc1ccccc1)c1ccncc1	-17%	nt
C=CCn1c(SCC(=O)NC2CCS(=O)(=O)C2)nc2scc(C3CC3)c2c1=O (centres undefined)	?	>57
O=C(CN1C(=O)c2ccccc2C1=O)NC1(C(=O)O)CCCC1	-1%[8 µM]	>57
O=C1C=C(NCc2ccco2)CCC1	23%	>57

For reference, part of the list above:
SMILES	LT uptake inh	SmPrx2 inh
Cc1ccc(N2C(=O)C(Cl)=C(NCCO)C2=O)c(C)c1	-20%	>57
CCOC(=O)N/N=C1/C[C@@H](O)[C@@H](O)[C@@H]2[C@@H]3C(=O)N(Cc4ccccc4)C(=O)[C@H]3CC[C@@H]12	-2%[8 µM]	nt
COc1ccc(N2CCN(C(CNS(=O)(=O)c3cc(F)ccc3F)c3cccnc3)CC2)cc1 (centres undefined)	14%	>57
Cc1cc(C)n2cc(CSc3nnnn3-c3ccccc3C)nc2n1	11%	>57
O=C(c1cc(C(F)(F)F)cc(C(F)(F)F)c1)N1CCC2(CCCN(c3ccncc3)C2)CC1	?	>57
CCn1c(=O)c2c(nc(SCc3ccccn3)n2C)n(C)c1=O	-2%	>57
O=C(Cc1cn2ccsc2n1)Nc1nc2c(s1)CCCC2	14%	>57
c1ccc(Nc2cccc3ccccc23)cc1	?	nt
CCc1c(C)sc(NC(=O)c2cc(-c3cc(OC)ccc3OC)on2)c1C#N	-3%	>57
Cc1ccc(C)c(N2CCN(CCCNC(=O)Cn3cc4c(n3)CCCCC4)CC2)c1	1%	>57
CC1(C)Cc2c(sc3c2c(=O)n(Cc2ccccc2)c2nncn32)CO1	-12%	>57
O=C1CN2C(=Nc3ccc(Cl)cc3C2c2ccccc2)CN1 (centres undefined)	-1%	>57
Cc1cc2c(c(=O)n1CCN(C)C)C(c1ccncc1)C(C#N)=C(N)O2 (centres undefined)	-18%	>57
Cc1cccc([N+](=O)[O-])c1	-3%	nt
O=C(CCS(=O)(=O)Cc1ccccc1)NC1CCCCC1	-17%	>57
O=C(C(c1ccccc1)c1ccccc1)N1CCN(CC(O)COc2ccccc2)CC1 (centres undefined)	-17%	>57
